# Vaccinia Venus – qHTS for Stage-Specific Inhibitors of Vaccinia Orthopoxvirus: Venus Reporter Primary qHTS; Vaccinia virus Venus reporter expression, fluorescence; Potency, µM (series often up to 36.5 µM), for the others: at the top dose activity change, negative = inhibition, usual class: inhibitors; hit rate 0.46% among 330,000; active means well fitted inhibition curve with a large enough effect; inconclusive means small, poorly fitted or top-dose-only effect; inactive means no such curve, though single readings can be large or run the other way; tested in A549 cells; note: nearly all actives have a fitted effect of over 30% in size; inactives centre near -10
# VACV mCherry inh – qHTS for Stage-Specific Inhibitors of Vaccinia Orthopoxvirus: mCherry Reporter Primary qHTS; Vaccinia virus mCherry reporter infection, fluorescence; about a quarter of the inactives have no number; Potency, µM (series often up to 36.5 µM), for inactives: top-dose activity change, negative = inhibition, actives largely listed as inhibitors; hit rate 0.63% among 310,000; AID 720579, 2013; active = well fitted inhibition curve with a large enough effect; inconclusive = small, poorly fitted or top-dose-only effect; inactive = no such curve, though single readings can be large or run the other way; tested in A549 cells; note: nearly all actives have a fitted effect of over 35% in size; inactives centre near -10
# * = called active by the depositor; i = inactive; ? = inconclusive; nt = not tested or not shown; & = joins results of further samples; [ ] = remark or other dose. % is set by controls: 0 for no effect and ±100 for the full control effect; potency is the fitted concentration of half-maximal effect.
canonical_smiles	Vaccinia Venus	VACV mCherry inh
O=C(C1CCN(S(=O)(=O)N2CCC3(CC2)OCCO3)CC1)N1CCOCC1	-7%	-7%
CN(C)/C=N/c1nc(-c2ccc3ccccc3c2)cs1	-9%	-16%
Cc1ccc(C(=O)COc2ccccc2-c2ccccc2)cc1	-19%	-27%
Cc1ccccc1-c1ccnc2c(-c3ccc(F)cc3)c(C)nn12	-19%	-19%
CN1CCN(Cc2cc(COCc3ccccc3)c3cccnc3c2O)CC1	?	28µM*
CCCCCCCCN1C(=O)[C@H](CC(=O)NCc2ccc(OC)c(OC)c2)C[C@@]2(C(=O)OCC)CCC=C12	?	?
Fc1ccc(NC(=S)NC2CCN(Cc3ccccc3)CC2)cc1	-19%	-10%
CCOC(=O)c1cc(NC(=O)c2cccnc2)ccc1N1CCOCC1	-3%	-6%
Cc1ccc(C(=O)Cc2ccccc2)o1	-13%	i
O=C1Nc2cc(Cl)c(Cl)cc2N(O)N1c1ccc(Cl)c(Cl)c1	-20%	-5%
COC(=O)C(C)Sc1ncnc2c1c(-c1ccccc1)cn2-c1ccc(OC)cc1 (stereo not given)	-5%	i
CCOc1ccc(NS(=O)(=O)c2ccc(C(=O)N3CCN(C(C)=O)CC3)cc2)cc1	-15%	-7%
COCCN1C(=O)CCC1(C)c1nnnn1-c1ccc2c(c1)OCCO2 (stereo not given)	8%	-8%
COc1ccc(CNC(=O)C(C)n2ccc3cc(S(=O)(=O)N4CCCCCC4)ccc32)cc1 (stereo not given)	-13%[7.34 µM]	-5%[7.34 µM]
CCn1c(SCC(=O)N/N=C/c2ccccc2OCC(=O)O)nnc1-c1ccc(OC)cc1	-10%	i
COc1ccccc1N(CC(=O)Nc1cc(S(=O)(=O)N(C)C)ccc1C)S(=O)(=O)c1cccs1	-13%	-20%
N/C(=N\OC(=O)COc1ccc2ccccc2c1)c1ccccn1	-10%	-20%
O=S(=O)(Nc1ccc(-c2ccc(N3CCOCC3)nn2)cc1)c1ccc(Cl)c(Cl)c1	-23%	-16%
CNC(=O)c1cc(S(=O)(=O)Nc2ccc(C)cc2C)ccc1C	-17%	i
CC(=O)N1CCc2cc(S(=O)(=O)NC(CC(C)C)C(=O)Nc3cc(C)ccn3)ccc21 (stereo not given)	-11%	-23%
COc1ccc2[nH]c3c(c2c1)CCN1C(=O)C(CC(=O)NCCC2=CCCCC2)C[C@H](C(=O)N(C(C)C)C(C)C)[C@@]31C (stereo not given in full)	?	?
O=C(c1cccc(N2CCNC2=O)c1)N1CCCC(Nc2cccc(F)c2)C1 (stereo not given)	-17%	-25%
CC(C)Cc1nnc(NC(=O)CSc2ncn[nH]2)s1	-12%	nt
COc1ccc(NC(=O)Nc2c[nH]c(=O)[nH]c2=O)cc1	-1%	i
c1ccc([C@@H]2CO2)cc1	-13%	-13%
CCc1ccc(CNC(=O)Cc2c(C(=O)O)c(C)cn2C)cc1	-10%	-9%
CCCCNC(=O)C1(C)CCCCN1C(=O)c1cncc(Br)c1 (stereo not given)	-4%	i
Cc1cccc(N2CCN(C(=O)Cn3nc(C)n4cccc4c3=O)CC2C)c1 (stereo not given)	12%&-14%	-20%
COc1ccc(C)cc1NC(=O)N1CCN(c2nnc(C)c3c(C)n(-c4ccccc4)nc23)CC1	9%	2%
CCCC(=O)C1=C(N(C)c2ccccc2)CC(C)(C)C(C(=O)OC)C1=O (stereo not given)	-14%	nt
Cc1cc(C)n(-c2nc(NCCO)c3c4c(sc3n2)CCCC4)n1	?	nt
CC(=O)N[C@H]1[C@H](OCc2ccccc2F)O[C@H](COC(C)=O)[C@@H](OC(C)=O)[C@@H]1OC(C)=O	-8%	6%
CC(=O)N1CCN(CC(=O)c2ccc(Br)cc2)CC1	-1%	-12%
OC(Cc1ccccc1)(c1ccccc1)C1CN2CCC1CC2 (stereo not given)	-14%	-8%
NC(=O)c1ccc(NC(=O)C2CCCC2)cc1	-5%	-15%
COc1cccc(NC(=O)NCCc2ccc(Cl)cc2)c1	2%	-14%

# 26 of the compounds above, with values under each structure:
# Each structure is followed by: Vaccinia Venus, VACV mCherry inh
> CCOC(=O)c1cc(NC(=O)c2cccnc2)ccc1N1CCOCC1
    -3%, -6%
> Cc1ccc(C(=O)Cc2ccccc2)o1
    -13%, i
> O=C1Nc2cc(Cl)c(Cl)cc2N(O)N1c1ccc(Cl)c(Cl)c1
    -20%, -5%
> COC(=O)C(C)Sc1ncnc2c1c(-c1ccccc1)cn2-c1ccc(OC)cc1 (stereo not given)
    -5%, i
> CCOc1ccc(NS(=O)(=O)c2ccc(C(=O)N3CCN(C(C)=O)CC3)cc2)cc1
    -15%, -7%
> COCCN1C(=O)CCC1(C)c1nnnn1-c1ccc2c(c1)OCCO2 (stereo not given)
    8%, -8%
> COc1ccc(CNC(=O)C(C)n2ccc3cc(S(=O)(=O)N4CCCCCC4)ccc32)cc1 (stereo not given)
    -13%[7.34 µM], -5%[7.34 µM]
> CCn1c(SCC(=O)N/N=C/c2ccccc2OCC(=O)O)nnc1-c1ccc(OC)cc1
    -10%, i
> COc1ccccc1N(CC(=O)Nc1cc(S(=O)(=O)N(C)C)ccc1C)S(=O)(=O)c1cccs1
    -13%, -20%
> N/C(=N\OC(=O)COc1ccc2ccccc2c1)c1ccccn1
    -10%, -20%
> O=S(=O)(Nc1ccc(-c2ccc(N3CCOCC3)nn2)cc1)c1ccc(Cl)c(Cl)c1
    -23%, -16%
> CNC(=O)c1cc(S(=O)(=O)Nc2ccc(C)cc2C)ccc1C
    -17%, i
> CC(=O)N1CCc2cc(S(=O)(=O)NC(CC(C)C)C(=O)Nc3cc(C)ccn3)ccc21 (stereo not given)
    -11%, -23%
> COc1ccc2[nH]c3c(c2c1)CCN1C(=O)C(CC(=O)NCCC2=CCCCC2)C[C@H](C(=O)N(C(C)C)C(C)C)[C@@]31C (stereo not given in full)
    ?, ?
> O=C(c1cccc(N2CCNC2=O)c1)N1CCCC(Nc2cccc(F)c2)C1 (stereo not given)
    -17%, -25%
> CC(C)Cc1nnc(NC(=O)CSc2ncn[nH]2)s1
    -12%, nt
> COc1ccc(NC(=O)Nc2c[nH]c(=O)[nH]c2=O)cc1
    -1%, i
> c1ccc([C@@H]2CO2)cc1
    -13%, -13%
> CCc1ccc(CNC(=O)Cc2c(C(=O)O)c(C)cn2C)cc1
    -10%, -9%
> CCCCNC(=O)C1(C)CCCCN1C(=O)c1cncc(Br)c1 (stereo not given)
    -4%, i
> Cc1cccc(N2CCN(C(=O)Cn3nc(C)n4cccc4c3=O)CC2C)c1 (stereo not given)
    12%&-14%, -20%
> COc1ccc(C)cc1NC(=O)N1CCN(c2nnc(C)c3c(C)n(-c4ccccc4)nc23)CC1
    9%, 2%
> CCCC(=O)C1=C(N(C)c2ccccc2)CC(C)(C)C(C(=O)OC)C1=O (stereo not given)
    -14%, nt
> Cc1cc(C)n(-c2nc(NCCO)c3c4c(sc3n2)CCCC4)n1
    ?, nt
> CC(=O)N[C@H]1[C@H](OCc2ccccc2F)O[C@H](COC(C)=O)[C@@H](OC(C)=O)[C@@H]1OC(C)=O
    -8%, 6%
> CC(=O)N1CCN(CC(=O)c2ccc(Br)cc2)CC1
    -1%, -12%

# Following part
canonical_smiles	Vaccinia Venus	VACV mCherry inh
O=C(Nc1cc(Cl)cc(Cl)c1)c1cccnc1	-7%	-14%
COc1ccc(Cl)cc1NC(=O)c1cc2nc(-c3ccc(C)cc3)cc(C(F)(F)F)n2n1	-2%	-12%
O=C(c1cc2ccccc2c(=O)o1)N1CCCc2ccccc21	0%	-23%[1.46 µM]
O=[N+]([O-])c1ccccc1S(=O)(=O)N1CCN(Cc2ccsc2)CC1	-16%	-15%
CCOC(=O)CCN(c1ccccc1)S(=O)(=O)c1ccc2[nH]c(=O)ccc2c1	3%	7%
Cc1ccc(-c2nnc3ccc(SC(C)C(=O)O)nn23)cc1 (stereo not given)	-1%&-6%	-10%&3%
OCCOc1ccccc1	-2%	14%
CCOC(=O)C1(Nc2nccs2)Sc2ccccc2NC1=O (stereo not given)	?	?
C(=C\c1ccccc1)/CN1CCN(C(CCc2ccccc2)c2nnnn2C2CCCCC2)CC1 (stereo not given)	-8%	25%
Cc1ccc(CC2CC(=O)N(C(Cc3ccccc3)C(=O)O)C2=O)cc1 (stereo not given)	-1%	i
CCN(CC)Cc1ccccn1	-1%	-5%
COCCCNC1=C(C#N)C(=O)NC2(CCCC2)S1	-1%	i
O=C(NC1CCCCC1)OC1CC2CC1[C@H]1CCCCN1C2=O (stereo not given in full)	5%	11%
Cc1ccc(Nc2nc(N)nc(CN3CCN(Cc4ccc5c(c4)OCO5)CC3)n2)cc1C	?	?
O=C(Nc1ccccc1N1CCOCC1)c1cccc(NS(=O)(=O)c2ccc(F)c(F)c2)c1	-20%	i
CCCOc1ccc(C(=O)N2CCN(Cc3ccc4c(c3)OCO4)CC2)cc1	-20%	-3%
CCc1cc2cccc(C)c2nc1SCC(=O)NNC(=O)c1ccco1	-16%	-25%
CCN(CC)C(=O)C1CCCN(Cc2nc(-c3cnccn3)no2)C1 (stereo not given)	-7%	i
COc1ccccc1NC(=O)C1=C(C)Nc2c(C(=O)Nc3ccc(F)cc3)cnn2C1c1ccc(Cl)cc1 (stereo not given)	-14%	i
Cc1ccc(N(C(C)C(=O)Nc2ccc3c(c2)OCO3)S(C)(=O)=O)cc1 (stereo not given)	-12%	-14%
O=C(NC(=S)NCc1nc2ccccc2[nH]1)c1ccccc1F	-8%	i
Cc1noc(C)c1C(=O)Nc1nc2ccccc2s1	-10%	-5%
CC1CCc2c(C(=O)Nc3ccc(N4CCOCC4)cc3)csc2C1 (stereo not given)	-11%	?
O=C(NCC(=O)N1CCc2ccccc2C1)c1ccc(Cl)cc1Cl	-5%	-11%
O=C1CN(C(=O)CSc2nnc(C3CC3)n2-c2ccccc2)c2ccccc2N1	-9%	-24%
CCOC(=O)CSc1nc2c(sc3ccc([N+](=O)[O-])cc32)c(=O)n1Cc1ccco1	-15%	i
Cc1ccc(/C=N/NC(=O)C2CCN(Cc3ccc(F)cc3Cl)CC2)o1	-7%	-13%
O=C(Nc1cccnc1)c1cccc(S(=O)(=O)N2CCc3ccccc32)c1	-20%	-24%
CCOc1cc(C(N)=O)cc(Cl)c1OCc1ccccc1	-22%	-8%
COc1ccc2nc(C)c3c(c2c1)OC(C(C)(Cl)Br)C3 (stereo not given)	-13%	-14%
Cc1ccc(CSc2oc(-c3ccco3)nc2S(=O)(=O)c2ccc(Cl)cc2)cc1	-16%	-14%
O=C(Nc1nccs1)[C@@H]1CC=C[C@@H]2CCN(Cc3ccccc3)C(=O)[C@@H]21	-14%&-14%	-25%&-20%
Cc1ccc(S(=O)(=O)N2CCCCC2)cc1NC(=O)COC(=O)Cc1ccc(Cl)cc1	-1%	-5%
O=[N+]([O-])c1ccc2cc[nH]c2c1	-13%	-16%
N=c1c2ccccc2nnn1-c1ccccc1[N+](=O)[O-]	-6%	i
CC(C)C(=O)Nc1ccc(S(=O)(=O)Nc2nccc(/C=C/c3ccccc3)n2)cc1	-6%	-19%

# Some of the entries so far, with values under each structure.
# Each structure is followed by: Vaccinia Venus | VACV mCherry inh
- COc1ccc2nc(C)c3c(c2c1)OC(C(C)(Cl)Br)C3 (stereo not given)
    -13% | -14%
- Cc1ccc(CSc2oc(-c3ccco3)nc2S(=O)(=O)c2ccc(Cl)cc2)cc1
    -16% | -14%

# Continuation.
canonical_smiles	Vaccinia Venus	VACV mCherry inh
O=c1c2ccccc2nc2c3ccccc3c(NCc3ccccn3)nn12	-15%	i
CC1CC(C)CN(C(C(=O)NC2CCCCC2)c2cc3ccccc3o2)C1 (stereo not given)	-4%	-2%
COc1ccc(-c2cc3nc(C)c(CCC(=O)Nc4ccccc4C(C)=O)c(C)n3n2)c(OC)c1	-3%	2%
C=CCOc1ccc(CNc2nccs2)cc1	-19%	nt
Cc1cc(C)c(S(=O)(=O)N2CCCCC2)c(C)c1N(C)S(=O)(=O)c1ccccc1	?	-9%
O=C(Cc1ccc(NC(=O)C2CCN(C(=O)C3CC3)CC2)cc1)Nc1ccc(C(=O)N2CCOCC2)cc1	-15%	-4%
O=C(NCCN1C(=O)S/C(=C\c2ccccc2Cl)C1=O)C1=COCCO1	-21%	-7%
COc1ccccc1CNC(=O)CCC1N=C2c3ccccc3N=C(SCc3cccc(Cl)c3)N2C1=O (stereo not given)	?	4µM*
CCOc1cc(-c2ccc(OC(=O)c3ccc(C)cc3)c(OC)c2)cc(=O)c2c(C)oc(C)c12	7%	-5%
S=C(NCc1ccccc1)N1CCCCC1	-6%	i
CC(=O)OCCC(NS(=O)(=O)OCC(Cl)(Cl)Cl)c1ccccc1 (stereo not given)	-18%	-9%
COCCCNC(=S)NC(=O)c1ccc(C)cc1	6%	3%
O=C(Nc1ccc(NC(=O)C2CC2)nc1)c1ccccc1F	-8%	14%
Cc1ccc2[nH]c(=O)c(CN(CC3CCCO3)C(=O)c3ccncc3)cc2c1 (stereo not given)	-7%	nt
CC(C)(C)OC(=O)C[C@H]1C/C=C\C[C@H](CC(=O)N[C@H](CO)Cc2ccccc2)C(=O)N[C@@H](Cc2ccccc2)COC1=O	-19%	i
O=C(O)c1ccc2c(c1)N(Cc1cccc(F)c1)C(=O)CS2	-4%	i

# Screens as filed in PubChem BioAssay.
